TRPV1 PAM: human TRPV1 potentiation; TRPV1-expressing cells, Fluo-8 calcium influx, capsaicin EC20 potentiation; host cell line not named in the record; control for the full effect not named in the record; hit rate 0.02% among 320,000; potentiation, % at 8.33 µM; Q8NER1; AID 540277; active means potentiation above 80%; inconclusive means 30% to 80%; inactive means below 30%; note: 0% is about no effect
Target sequence (Q8NER1 whole entry, looked up): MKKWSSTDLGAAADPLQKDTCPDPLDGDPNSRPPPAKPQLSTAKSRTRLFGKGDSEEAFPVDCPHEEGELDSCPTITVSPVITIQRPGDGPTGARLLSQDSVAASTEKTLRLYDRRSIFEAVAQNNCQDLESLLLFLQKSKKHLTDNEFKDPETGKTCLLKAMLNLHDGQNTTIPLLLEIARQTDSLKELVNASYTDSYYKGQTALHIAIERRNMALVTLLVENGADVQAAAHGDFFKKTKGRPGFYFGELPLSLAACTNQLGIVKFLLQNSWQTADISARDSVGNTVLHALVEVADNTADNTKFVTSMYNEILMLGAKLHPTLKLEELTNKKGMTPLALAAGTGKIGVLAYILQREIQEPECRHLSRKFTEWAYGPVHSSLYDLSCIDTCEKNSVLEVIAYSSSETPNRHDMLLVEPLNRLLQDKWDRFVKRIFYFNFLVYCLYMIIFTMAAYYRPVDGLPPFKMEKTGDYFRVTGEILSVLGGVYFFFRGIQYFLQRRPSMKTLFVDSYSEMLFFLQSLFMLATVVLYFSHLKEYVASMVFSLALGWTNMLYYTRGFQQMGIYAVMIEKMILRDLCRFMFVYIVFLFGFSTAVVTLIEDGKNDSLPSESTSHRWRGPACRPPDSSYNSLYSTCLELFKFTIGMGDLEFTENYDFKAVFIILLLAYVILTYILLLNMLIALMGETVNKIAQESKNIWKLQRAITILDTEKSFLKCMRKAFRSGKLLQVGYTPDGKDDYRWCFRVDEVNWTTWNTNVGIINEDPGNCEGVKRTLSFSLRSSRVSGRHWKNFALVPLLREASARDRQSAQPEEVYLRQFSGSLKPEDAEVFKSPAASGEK
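Fluo-8 calcium influx in TRPV1-expressing cells, kinetic read (ex 480/em 520 nm). Compound added and read 3 min for agonist activity, followed by capsaicin at EC20 final and 2 min further read for enhancement.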
Menin MLL FP FL: inhibitors of human menin-MLL interaction, wild-type MLL peptide; Fluorescence polarization, fluorescein-MLL peptide displacement from menin; FP activity change, % at 61.4 µM; 290,000 tested, under 10 active; inconclusive = falling polarisation curve, or a change in total fluorescence; inactive = total fluorescence flat and polarisation flat or rising; no compound was filed as active; the % refers to the polarisation; negative = inhibition;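 note: % of control where 0% means no effect; inhibitors lower the polarisation; unlabelled MLL peptide was the positive control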
PINK1 modulator: PINK1 expression modulation; Potency, µM (titrated, usually from 76.6 µM), for inactives: top-dose activation (PINK1 increase), actives largely listed as activators; PINK1 immunofluorescence, high-content cytometry, 24 h; hit rate 0.2% among 410,000; active = well fitted activation curve with a large enough effect; inconclusive = small, poorly fitted or top-dose-only effect; inactive = flat fitted curve, though single readings scatter; cell line not stated here;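 note: potency is the fitted concentration of half-maximal effect; % of control where 0% means no effect; nearly all actives have a fitted effect of over 65% in size; a mitochondrial uncoupler was the plate control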
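PINK1 protein level read as immunofluorescence by microplate cytometer in a fixed, stained stable cell line after 24 h exposure to five compound concentrations, with CCCP as control.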
Sfp PPTase inh: blocks B. subtilis Sfp PPTase activity; Q9F4F7; Biochemical Sfp PPTase activity, qHTS; Potency, µM, without a hit: max response, negative = inhibition, most hits filed as inhibitors; hit rate 3.5% among 310,000; AID 1490; active = well fitted inhibition curve with a large enough effect; inconclusive = small, poorly fitted or top-dose-only effect, or another doubt; inactive = no such curve, though single readings can be large or run the other way;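 note: the enzyme is Sfp with the accession as filed and its product quenches rhodamine fluorescence; potency is the fitted concentration of half-maximal effect; 0% = enzyme reaction without inhibitor and -100% = no enzyme wells; top concentration of the series not given in the record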
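Fluorescence-quenching assay with 15 nM Sfp, 5 uM rhodamine-CoA and 12.5 uM BHQ-2-labelled ybbR peptide in pH 7.6 Hepes/MgCl2 buffer. Enzyme was pre-incubated with compound for 15 min at room temperature. Rate was taken from the 30-min fluorescence change (525/598 nm).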
TRPML1 ag: human mucolipin-1 channel agonism; TRPML1-expressing cells, Ca2+ dye fluorescence, FDSS; host cell line not named in the record; reference of the full effect not given here; Q9GZU1; activation, % (concentration not given with the values); hit rate 0.12% among 410,000; in the data active = activation above about 50%; inconclusive = about 30% to 50%; inactive = below about 30%; note: 0% is about no effect; the text of the record puts the active cut at 80%
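Cells: TRPML1-DL, 1X Tet inducer, ~16 h at 37 degrees C/5% CO2. Dye: ABD Ca8 no-wash + quencher, 45-90 min RT. Read: 10 s baseline, compound add, 110 s agonist phase; 54-4 EC80 (4uM final), 110 s antagonist phase.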
ClpP mod: qHTS Assay for Activators of ClpP. ATP-dependent Clp protease proteolytic subunit (Bacillus subtilis (strain 168)), P80244. purified B. subtilis ClpP, FRET peptide cleavage, 20 min. Potency, µM (doses to about 57.5 µM), for the others: at the highest dose activity change, negative = active. hit rate 1.9% among 340,000. AID 651965, 2013; active = well fitted falling curve with a large enough effect; inconclusive = small, poorly fitted or top-dose-only effect; inactive = no such curve, though single readings can be large or run the other way; note: potency is the fitted concentration of half-maximal effect; the source files actives as falling curves though it sought activators and does not explain the sign; nearly all actives have a fitted effect of over 65% in size; many hits overshoot -100%
Target sequence (P80244 whole entry, looked up): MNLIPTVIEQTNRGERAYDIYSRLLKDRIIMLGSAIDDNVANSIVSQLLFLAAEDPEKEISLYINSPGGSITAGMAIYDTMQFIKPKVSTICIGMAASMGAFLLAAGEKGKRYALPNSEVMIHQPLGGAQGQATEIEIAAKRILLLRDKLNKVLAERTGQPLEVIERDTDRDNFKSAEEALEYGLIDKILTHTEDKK
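Buffer: 100 mM Tris/HCl pH8, 100 mM KCl, 0.05% low protease BSA, 2.5% glycerol, 0.01% Tween-20. ClpP 10 microg/mL final; 20 min RT; delta FRET normalized to ADEP and DMSO controls.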
TRPML1 inh: inhibitors of human TRPML1 channel; Q9GZU1; TRPML1-inducible cells, Ca2+ dye fluorescence, FDSS; hits give low values; inhibition of EC80 agonist-evoked calcium signal; activity change, negative = inhibition, % (concentration not given with the values); hit rate 0.02% among 390,000; in the data active means activity change below about -50%; inconclusive means about -30% to -50%; inactive means above about -30%;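 note: stimulus is agonist 54-4 at its EC80 concentration; % is set by controls: 0 for no effect and ±100 for the full control effect; compound concentration not given in the record; the text of the record puts the active cut at -80%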
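Calcium fluorescence in TRPML1-DL cells induced overnight with Tet: a 110 s read after compound pin addition, then a 110 s antagonist read after challenge with 54-4 at 4 uM final (EC80).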
* marks the source's active call; other numbers are inactive results; [ ] = dose if it differs, or a comment.

Screening COc1ccccc1NC(=O)C1=C(C)Nc2nc(SCc3ccccc3)nn2C1c1cccnc1 (configuration not stated) returned PINK1 modulator 2.1%, TRPML1 ag -0.5, ClpP mod -5.3% and TRPML1 inh -19.
Screening Cc1ccc(CNc2nc3ccccc3n2C)o1 returned TRPV1 PAM 21, Menin MLL FP FL 0.1, PINK1 modulator 0.2%, Sfp PPTase inh 14%, TRPML1 ag -0.4, ClpP mod -6.8% and TRPML1 inh 13.
Screening Cc1cccc(NC(=O)CSc2nnc(-c3ccccc3)n2N)c1 returned TRPV1 PAM 6, Menin MLL FP FL 8.0, PINK1 modulator 0.2%, Sfp PPTase inh 12%, TRPML1 ag -1.1, ClpP mod 0.2% and TRPML1 inh -4.
`CCCc1nc(SCC(=O)c2ccc3c(c2)NC(=O)CO3)[nH]c(=O)c1CC` gave PINK1 modulator 2.0%, TRPML1 ag 8.5 and TRPML1 inh -2.
Screening CCC(Sc1nc(N)cc(=O)[nH]1)C(=O)Nc1cc(C)on1 (configuration not stated) returned TRPV1 PAM -15, Menin MLL FP FL -2.4, PINK1 modulator 0.3%, Sfp PPTase inh 5%, TRPML1 ag 0.7 and TRPML1 inh 5.
`COC(=O)c1ccc(Cn2nc([N+](=O)[O-])c(Br)c2C)cc1` gave TRPV1 PAM 7, Menin MLL FP FL 0.1, PINK1 modulator 2.5%, Sfp PPTase inh 13%, TRPML1 ag 0.8 and TRPML1 inh 3.
COC(=O)CCN(C(C)=O)c1ccc(N)cc1 was read as TRPV1 PAM -2, Menin MLL FP FL 1.1, PINK1 modulator -2.2%, Sfp PPTase inh 16%, TRPML1 ag 1.2, ClpP mod 1.1% and TRPML1 inh -2.
Screening CC(=O)c1ccc(S(=O)(=O)Oc2ccc(-c3ccc(C(=O)O)cc3)cc2)cc1 returned TRPV1 PAM -15, Menin MLL FP FL 12, PINK1 modulator 0.7%, Sfp PPTase inh -3%, TRPML1 ag 0.9 and TRPML1 inh 9.
For COc1ccccc1S(=O)(=O)N1CCC(C(=O)O)(c2ccccc2)CC1 the results were TRPV1 PAM 26, Menin MLL FP FL 2.9, PINK1 modulator 2.0%, Sfp PPTase inh 14%, TRPML1 ag -1.0, ClpP mod 1.0% and TRPML1 inh 4.
Screening COCCn1c(SCC(=O)c2c(N)n(C3CC3)c(=O)[nH]c2=O)nc2ccccc21 returned TRPV1 PAM -9, PINK1 modulator 0.2%, TRPML1 ag 4.3, ClpP mod -0.2% and TRPML1 inh 8.
For COCCOC(=O)C1=C(C)NC(=O)NC1c1ccc(-c2ccc(F)cc2)o1 (configuration not stated) the results were TRPV1 PAM 1, Menin MLL FP FL 17, PINK1 modulator -1.2%, Sfp PPTase inh -16%, TRPML1 ag 0.0 and TRPML1 inh 15.
`COc1cccc(N2CCN(c3ncnc4onc(-c5ccc(F)cc5)c34)CC2)c1` gave PINK1 modulator 7.4%, TRPML1 ag 2.4, ClpP mod 0.0% and TRPML1 inh -23.
`COCCNC(=O)c1ccc2c(c1)C(=O)c1ccccc1-2` gave TRPV1 PAM -25, Menin MLL FP FL 4.7, PINK1 modulator 4.1%, Sfp PPTase inh 8%, TRPML1 ag 0.1, ClpP mod -0.4% and TRPML1 inh 54.
`Cc1ccc(N(CC(=O)NCc2ccccn2)S(=O)(=O)c2ccccc2)cc1C` gave TRPV1 PAM -2, Menin MLL FP FL -0.4, PINK1 modulator -1.0%, Sfp PPTase inh 15%, TRPML1 ag 1.5 and TRPML1 inh 2.
For COc1ccc(OCC(=O)N2CCCC(Nc3ccc(C)c(C)c3)C2)cc1 (configuration not stated) the results were PINK1 modulator 1.2%, TRPML1 ag -0.3, ClpP mod 0.9% and TRPML1 inh -17.
Cc1ccc(C(=O)NCC(=O)OCN2C(=O)c3ccccc3C2=O)cc1C was read as TRPV1 PAM 6, PINK1 modulator -0.2%, TRPML1 ag 0.7, ClpP mod -0.9% and TRPML1 inh 14.
Screening N#Cc1c2c(c(-c3ccccc3Cl)[nH]c1=S)CCCC2 returned TRPV1 PAM 1, Menin MLL FP FL 0.8, PINK1 modulator 0.3%, Sfp PPTase inh inconclusive, TRPML1 ag 1.9 and TRPML1 inh 3.
Screening CCOC(=O)c1ccc(NC(=S)N2CCN(CCN=CC3=C(O)CC(C)(C)CC3=O)CC2)cc1 returned TRPV1 PAM 9, Menin MLL FP FL -0.1, PINK1 modulator -1.4%, Sfp PPTase inh 11µM*, TRPML1 ag 0.0 and TRPML1 inh 5.
CN(C)c1ccc(-c2ccnc3c2CC(C)(C(=O)NCc2ccco2)O3)cc1 (configuration not stated) was read as PINK1 modulator 9.2%, TRPML1 ag -1.1 and ClpP mod 4.9%.
Cc1nc(Cl)cc(N/N=C/c2ccccc2)n1 was read as TRPV1 PAM 30, Menin MLL FP FL 4.0, PINK1 modulator -2.1%, Sfp PPTase inh 7%, TRPML1 ag -1.4, ClpP mod -2.1% and TRPML1 inh 1.
CN(C(=O)c1ccc2c(Cl)c3c(nc2c1)CCC3)c1ccccc1F was read as PINK1 modulator 0.2%, TRPML1 ag 0.1, ClpP mod -1.4% and TRPML1 inh -9.
`COc1ccc(C(=O)Nc2nnc(CC(=O)N/N=C/c3ccc(O)cc3O)s2)cc1` gave TRPV1 PAM -15, Menin MLL FP FL inconclusive and Sfp PPTase inh -1%.
`FC(F)Oc1ccc(-n2cc(-c3ccccc3)[n+]3c2CCCCC3)cc1` gave TRPV1 PAM 9, Menin MLL FP FL 0.9, PINK1 modulator 1.8%, Sfp PPTase inh 14%, TRPML1 ag 0.4, ClpP mod -2.0% and TRPML1 inh 7.
`CN(C)C1(CNC(=S)Nc2ccccc2C(F)(F)F)CCCCC1` gave TRPV1 PAM 8, Menin MLL FP FL 0.2, PINK1 modulator 1.0%, Sfp PPTase inh 10%, TRPML1 ag -0.8, ClpP mod 0.3% and TRPML1 inh 15.
Screening COCCNC(=O)Cn1c(=O)n(-c2ccc(C)c(C)c2)c(=O)c2c3c(sc21)CCCCC3 returned PINK1 modulator 0.9%, TRPML1 ag 0.4, ClpP mod 0.1% and TRPML1 inh -24.
`CCOC(=O)c1ccc(NC(=O)Nc2ccc3snnc3c2)cc1` gave PINK1 modulator -4.8%, TRPML1 ag 1.5, ClpP mod -2.9% and TRPML1 inh 32.
`O=C(O)c1ccccc1NC1CCCCC1NS(=O)(=O)c1ccccc1` (configuration not stated) gave TRPV1 PAM 1, Menin MLL FP FL -1.0, PINK1 modulator 0.1%, Sfp PPTase inh 14%, TRPML1 ag -1.1, ClpP mod 3.9% and TRPML1 inh -3.
For Cc1ccc(NC(=O)Cn2nc(C)n3cccc3c2=O)c(C)c1 the results were PINK1 modulator -0.5%, TRPML1 ag 0.6, ClpP mod -3.5% and TRPML1 inh -1.
For Nc1cc(=O)n(Cc2ccco2)c(=S)[nH]1 the results were PINK1 modulator 1.3%, TRPML1 ag -0.9, ClpP mod 0.4% and TRPML1 inh 4.
Screening CN(C)c1ccc(/C=N/NC(=O)c2ccccc2)cc1 returned TRPV1 PAM -5, Menin MLL FP FL -17, PINK1 modulator 9.7%, Sfp PPTase inh 19%, TRPML1 ag -0.4 and TRPML1 inh 4.
For Cc1ccc2sc(N(Cc3cccnc3)C(=O)Cc3ccccc3)nc2c1C the results were PINK1 modulator 1.3%, TRPML1 ag 2.3, ClpP mod -0.2% and TRPML1 inh 14.
Screening O=C(c1ccco1)N1CCN(c2ccc([N+](=O)[O-])c(N3CCOCC3)c2)CC1 returned TRPV1 PAM 10, Menin MLL FP FL 1.3, PINK1 modulator -0.2%, Sfp PPTase inh 22%, TRPML1 ag 1.2 and TRPML1 inh 3.
Screening CC(/C=N/NC(=O)c1nnn(-c2nonc2N)c1CN1CCCCC1)=C\c1ccccc1 returned TRPV1 PAM -5, PINK1 modulator 13%, Sfp PPTase inh -9%, TRPML1 ag 2.6, ClpP mod -2.4% and TRPML1 inh 20.
For CCN(CC)S(=O)(=O)c1ccc(F)c(C(=O)OC2CC(C)OC2=O)c1 (configuration not stated) the results were TRPV1 PAM 9, Menin MLL FP FL 4.1, PINK1 modulator 3.8%, Sfp PPTase inh 24%, TRPML1 ag -0.4 and TRPML1 inh -9.
`Cc1ccc(NC(=O)c2ccc(Nc3c([N+](=O)[O-])cc([N+](=O)[O-])cc3[N+](=O)[O-])cc2)cc1` gave TRPV1 PAM 9, PINK1 modulator -3.0%, Sfp PPTase inh 2%, TRPML1 ag -1.3, ClpP mod 3.3% and TRPML1 inh -21.
For O=C(c1ccc(C(F)(F)F)cc1)C1CCCN(C(=O)CCc2ccncc2)C1 (configuration not stated) the results were TRPV1 PAM -14, PINK1 modulator -0.3%, Sfp PPTase inh 12%, TRPML1 ag -0.1 and TRPML1 inh 1.
For O=C(NC1CCCc2ccccc21)C1CCCN(S(=O)(=O)c2cnc[nH]2)C1 (configuration not stated) the results were TRPV1 PAM 7, Menin MLL FP FL 3.8, PINK1 modulator 0.2%, Sfp PPTase inh 15%, TRPML1 ag -0.5, ClpP mod 0.6% and TRPML1 inh 20.
For CSc1ccc(/C=c2\s/c(=C\C(=O)C(C)(C)C)n(CC(=O)NCCC3=CCCCC3)c2=O)cc1 the results were TRPV1 PAM 6, Menin MLL FP FL inconclusive, PINK1 modulator inconclusive, Sfp PPTase inh 3%, TRPML1 ag 2.3, ClpP mod 0.9% and TRPML1 inh 22.
Screening CCOC(=O)c1ccccc1NS(=O)(=O)c1ccc(OCC)cc1 returned TRPV1 PAM 3, Menin MLL FP FL -0.3, PINK1 modulator 5.7%[38.3 µM], Sfp PPTase inh 0%, TRPML1 ag inconclusive, ClpP mod -5.8% and TRPML1 inh -17.
`C=CCn1c(O)c(N=NC(=O)c2ccccc2NS(=O)(=O)c2cccs2)c2ccccc21` gave TRPV1 PAM inconclusive, Menin MLL FP FL 5.7, PINK1 modulator 3.4%, Sfp PPTase inh -3%, TRPML1 ag 0.7, ClpP mod -14% and TRPML1 inh 17.
For O=C(CSc1nnc2c(Cl)cc(Cl)cn12)N1CCN(c2ccc(F)cc2)CC1 the results were TRPV1 PAM 3, Menin MLL FP FL 0.9, PINK1 modulator -1.6%, Sfp PPTase inh 2%, TRPML1 ag -0.6, ClpP mod -0.9% and TRPML1 inh -3.

Assay outcomes deposited in PubChem by National Center for Advancing Translational Sciences (NCATS).
